Compound activity: PubChem BioAssay, Broad Institute
Tg IFNy HTS = blocks Toxoplasma gondii growth in the presence of IFN-gamma; Toxoplasma gondii growth in IFN-gamma-treated host cells; hits give low values; reference of the scale not given here; activity change, negative = inhibition, %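 (about 20 µM by stock and volumes)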; actives 3.8% (n = 69,000);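 active = below -70%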;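 also: host cells are HeLa cells infected with Toxoplasma gondii; parasite growth read as luciferase light; one replicate is shown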
Starred values were filed as active, the others as inactive; i = inactive; & = joins results of further samples; ! = a repeat was not active. This is a subset. The share of hits here may be higher or lower than overall.

SMILES	Tg IFNy HTS
O=C(c1ccnnc1)N1C[C@H]2CN(Cc3cccc(F)c3)C[C@H]2C1	-50.3
OC[C@@H]1Nc2ccc(C#Cc3cccnc3)cc2[C@@H]2NCC[C@H]12	5.8
Cc1ccc(C(=O)N2CCN(C)C3(CCN(C)CC3)C2)c(=O)[nH]1	3.9
Cc1ccc(NC(=O)c2cc3cccnc3n(Cc3ccc(F)cc3)c2=O)cc1Cl	42.2
O=C(Nc1ccc2c(c1)OCCO2)c1c(O)c2cccnc2n(Cc2ccccc2)c1=O	211.0
O=C(O)CN1CCC2C1CC(=O)N2c1ccsc1 (stereo unspecified)	-9.1
Cc1ccc(C)c(NC(=O)c2cc3cccnc3n(Cc3ccc(Cl)cc3)c2=O)c1	19.5
C=CCN1CC[C@H]2[C@@H]1CCN2Cc1nccs1	7.8
CCCCc1ncc(-c2nccn2C(C)c2ccc(C)nc2)[nH]1 (stereo unspecified)	-19.3
CNC(=O)CN1CCOCC2(CCCN(c3ncccn3)C2)C1 (stereo unspecified)	-68.4
O=C(NC[C@@]12COC[C@@H]1CN(Cc1cccs1)C2)c1ccno1	1.8
NCCc1c[nH]c2ccc(C(N)=O)cc12	19.4&11.2
O=C(Nc1ccc(F)c(Cl)c1)c1c(O)c2cccnc2n(Cc2ccccc2)c1=O	-26.8
O=C(NCc1ccc(F)cc1)c1c(O)c2cccnc2n(Cc2ccccc2)c1=O	-99.1*
C1C[C@H]2CNC[C@]2(COCC2CCOCC2)C1	-60.8
O=C(c1ccnnc1)N1C[C@H]2CN(Cc3ccccc3)C[C@H]2C1	-34.8
CC(C)C(=O)Nc1ccc(S(=O)(=O)N2CC3CC(C2)c2cccc(=O)n2C3)cc1 (stereo unspecified)	2.6
C[N@@+]1(CC2CC2)CC[C@]23c4c5ccc(O)c4O[C@H]2C(=O)CC[C@]3(O)[C@H]1C5	20.7
Cc1nc(C(F)(F)F)nc(N2CCOC3(CNCCOC3)C2)c1C (stereo unspecified)	-4.0
Cc1nonc1CC(=O)NC1CCN(CC2(c3ccc(Cl)cc3)CCC2)CC1	7.0
Cc1cccc(CN2C[C@H]3OCCN(CC4CCCO4)[C@H]3C2)n1 (stereo partly specified)	0.9
C/C=C/c1ccc([C@@H]2[C@H]3CN(C(=O)Cc4cccnc4)CCCCN3[C@H]2CO)cc1	-9.6
OC1(c2ccc(Cl)cc2)c2ccccc2C2=NCCN21 (stereo unspecified)	8.9
Fc1cccnc1OC1C2CCC1N(Cc1ccco1)CCO2 (stereo unspecified)	70.5
O=C1NC2(CCNCC2)CC1c1ccncc1 (stereo unspecified)	-0.9
CC(C)N1C2COCC1CN(Cc1nccs1)C2	5.5
CNc1ncc(C(=O)N2CCN3CCN(C)C(=O)C3C2)cn1 (stereo unspecified)	4.6
O=C(c1cn(-c2ccccc2)nn1)N1C[C@H]2C[C@@H](C1)c1cccc(=O)n1C2	-33.4
CN1CCCCC1c1ccc(-c2cccnc2)nc1 (stereo unspecified)	-50.7
O=S(=O)(c1ccc(F)cc1)N1CC[C@@H]2CNC[C@@H]21	-3.9

By substructure: the compounds so far with a halogen (ten)
SMILES	Tg IFNy HTS
O=C(c1ccnnc1)N1C[C@H]2CN(Cc3cccc(F)c3)C[C@H]2C1	-50.3
Cc1ccc(NC(=O)c2cc3cccnc3n(Cc3ccc(F)cc3)c2=O)cc1Cl	42.2
Cc1ccc(C)c(NC(=O)c2cc3cccnc3n(Cc3ccc(Cl)cc3)c2=O)c1	19.5
O=C(Nc1ccc(F)c(Cl)c1)c1c(O)c2cccnc2n(Cc2ccccc2)c1=O	-26.8
O=C(NCc1ccc(F)cc1)c1c(O)c2cccnc2n(Cc2ccccc2)c1=O	-99.1*
Cc1nc(C(F)(F)F)nc(N2CCOC3(CNCCOC3)C2)c1C (stereo unspecified)	-4.0
Cc1nonc1CC(=O)NC1CCN(CC2(c3ccc(Cl)cc3)CCC2)CC1	7.0
OC1(c2ccc(Cl)cc2)c2ccccc2C2=NCCN21 (stereo unspecified)	8.9
Fc1cccnc1OC1C2CCC1N(Cc1ccco1)CCO2 (stereo unspecified)	70.5
O=S(=O)(c1ccc(F)cc1)N1CC[C@@H]2CNC[C@@H]21	-3.9

Next part:
SMILES	Tg IFNy HTS
CCOP(=S)(OCC)Oc1nc(Cl)c(Cl)cc1Cl	-75.8*!
CN1C2CCC1CC(OC(c1ccccc1)c1ccccc1N)C2 (stereo unspecified)	9.2
O=C(NCc1c(F)cccc1F)c1cc2cccnc2n(Cc2ccccc2)c1=O	13.8
COCCCNC(=O)c1cc2cccnc2n(Cc2ccccc2)c1=O	37.4
O=C(c1cc(CN2CCOCC2)on1)N1CCN2CCCC2C1 (stereo unspecified)	-7.4
Cc1nc(CN2C[C@@H]3CN(Cc4c(C)noc4C)C[C@H]3C2=O)cs1	-5.3
COCCN1CCN(S(C)(=O)=O)Cc2ccc(C)nc21	5.8
CC(C)(C)C(=O)Nc1ccc(Cl)cc1C(=O)c1ccccc1	-8.4
CN1CC2(CCN(Cc3ccccn3)CC2)CC1COCC1CC1 (stereo unspecified)	-0.1
CN(C)[C@@H]1CCN(C(=O)Cc2ccccn2)[C@H]1Cc1ccncc1	2.5
c1cnc(N2CCCC3(CCCN3Cc3cccnc3)C2)nc1 (stereo unspecified)	-0.1
Cc1nccc(-c2ccc(-c3noc(CN4C5CCC4CC(O)(c4ccco4)C5)n3)cc2)n1 (stereo unspecified)	-2.1
c1cncc(CN2CC3(CCNCC3)CC2COCC2CC2)c1 (stereo unspecified)	-17.2
CC(C)CN1CC2CN(C(=O)CCc3cccnc3)CC2C1 (stereo unspecified)	14.1
CC(C)N(C)C(=O)C1CCC2(CCNCC2)CO1 (stereo unspecified)	-29.5
O=c1ccc2cc(O[C@@H]3O[C@H](CO)[C@@H](O)[C@H](O)[C@H]3O)c(O)cc2o1	8.3
CN1C[C@@H](NC(=O)C2CC2)C2OCCCC21 (stereo partly specified)	-23.6
CCCN1C[C@H]2COC[C@H](CC(=O)NCCc3ccccn3)[C@H]2C1	-14.0
c1ccc(N2CCNCC2)c(-c2cc3ccccc3o2)c1	-35.6
COCCN1CCC2(COCc3cnc(N4CCOCC4)nc32)C1 (stereo unspecified)	-90.5*
Cc1noc(C)c1CN1CCO[C@@H]2CN(C(C)C)C[C@@H]21	133.8
CC(C)N1C[C@H]2C[C@H](CC(=O)NCc3cccnc3)O[C@@H]2C1	-4.4
CCCCOC(=O)c1ccc(NC(=O)c2cc3cccnc3n(Cc3ccccc3)c2=O)cc1	-41.7
CN1CCC2(CCN(C(=O)c3ccc[nH]3)CC2)C1	-2.8
Nc1cc2nc3ccccc3nc2cc1O	i
CN(C)CC#Cc1ccc([C@H]2[C@@H](CO)N3CCCCN(C(=O)Cc4ccccn4)C[C@H]23)cc1	6.1
N#Cc1ccccc1NC(=O)c1cc2cccnc2n(Cc2ccc(Cl)cc2)c1=O	-7.8
CCN1CCC2(CC1)CC(Oc1ccccc1)CO2 (stereo unspecified)	-62.2
CCC(Oc1ccc(Cl)cc1)C(=O)OC1CC2CCC(C1)N2C (stereo unspecified)	-11.6&4.0
NS(=O)(=O)c1ccc(CCNC(=O)c2cc3cccnc3n(Cc3ccc(F)cc3)c2=O)cc1	-87.9*
O=c1[nH]cc(CN2C[C@H]3CC=CC[C@H]3C2)c(=O)[nH]1	-0.9
Cc1cc(NC(=O)c2cc3cccnc3n(Cc3ccc(F)cc3)c2=O)ccc1Br	44.2
CN(C(=O)[C@@H](N)Cc1cnc[nH]1)C1Cc2ccccc2C1	65.3
COCCN1CCN(CC2CCOCC2)Cc2cccnc21	-45.5
Cc1nc(-c2ccc3c(c2)C(C)(C)CCC3(C)C)cs1	-11.8
CN(C(=O)c1ccccc1C(F)(F)F)c1ccc(Cl)cc1C(=O)c1ccccc1	-60.3
CC(=O)Nc1ccc(Cl)c(C(=O)NCCc2cnc[nH]2)c1	-8.0
O=C(Nc1ccccc1)N1CC2CNC(C2)C1 (stereo unspecified)	98.5
CN1C[C@@H](NC(=O)c2cscn2)C2OCCCC21 (stereo partly specified)	-2.5
CN1C[C@@H](COCc2cccnc2)[C@]2(CCN(C(=O)N(C)C)C2)C1	1.1
OC1(c2ccc(F)cc2)CC2CCC(C1)N2Cc1nnnn1C1CCCCC1 (stereo unspecified)	-7.5
O=C1Nc2cc(Cl)c(Cl)cc2N2CCNCC12 (stereo unspecified)	3.3&-6.7
C[C@H](N)Cn1ccc2cc(F)c(Cl)cc21	1.8
CN1CC(C(=O)O)CN2CCN(C(=O)Cc3ccc(F)cc3)CC2C1 (stereo unspecified)	3.4
CCOc1ccccc1NC(=O)c1cc2cccnc2n(Cc2ccc(F)cc2)c1=O	4.9
C[Se]C[C@H](N)C(=O)O	30.7
c1cnc(NC2CC3(CCN(Cc4cccnc4)C3)C2)nc1 (stereo unspecified)	5.3
CCCc1nc(C)cc(N2[C@H]3CCNC[C@@H]2CC3)n1	4.2
Cc1ncc(C(=O)NC2CCN(CC3(c4ccc(Cl)cc4)CCC3)CC2)c(C)n1	-48.4
c1cncc(CN2CCCC23CCN(Cc2ccoc2)CC3)c1	-7.0
Later entries
SMILES	Tg IFNy HTS
O=C1CNC[C@@H]2[C@@H](c3ccc(Br)cc3)[C@H](CO)N12	-18.3
CC(C)[C@H]1C(=O)N2CCC[C@H]2[C@]2(O)O[C@](NC(=O)[C@@H]3C=C4c5cccc6[nH]cc(c56)C[C@H]4N(C)C3)(C(C)C)C(=O)N12	13.0
Cn1cc(C(=O)Cc2ccccc2)c2ccccc21	5.5
COc1cc2c(cc1O)CC1c3c(cc(O)c(OC)c3-2)CCN1C (stereo unspecified)	-18.0
Cn1cccc1CN1CCC2(CCCN(Cc3ccccn3)C2)C1 (stereo unspecified)	-4.5
CN1CCC2(CC1)C(=O)Nc1ccc(C(=O)NC3CC3)cc12	i
Clc1ccc(-c2noc3c2CN(CCc2c[nH]c4ccccc24)CC3)cc1	-2.8
O=C(NCc1ccccc1)c1cc2cccnc2n(Cc2ccccc2)c1=O	-69.1
C[C@H]1CCCC(=O)CCCCCc2cc(O)cc(O)c2C(=O)O1	-31.5
CCOc1ccc(C2C(C#N)=C(N)Oc3c2c(=O)oc2ccccc32)cc1 (stereo unspecified)	-45.3
CCS(=O)(=O)NCC[C@@]12CCO[C@@H]1CCN(Cc1cccnc1)C2	-0.3
C=CCN1CCN(Cc2cnn(C)c2)Cc2ccc(C)nc21	-2.2
CCOc1ccc(/C=C/C(=O)C2C(=O)N(C)C3(C)CC2c2cc(Cl)ccc2O3)cc1OC (stereo unspecified)	-49.2
CN(C)C(=O)CN1CC2CCC1C2Oc1ccccn1 (stereo unspecified)	73.9
CCc1ccc(CN2C[C@H](OC)[C@@H]3COC[C@@H]32)o1	0.7
C#C[C@]1(O)C=C[C@H]2[C@@H]3CCC4=CC(=O)CC[C@@H]4[C@H]3CC[C@@]21CC	-80.9*
Cc1cc(C)cc(NC(=O)c2c(O)c3cccnc3n(Cc3ccccc3)c2=O)c1	134.7
O=C1NC(=O)c2c1c1c3ccccc3[nH]c1c1[nH]c3ccccc3c21	-3.8&-41.1
O[C@H]1[C@H](O)[C@@H](O)CN2CC[C@H](O)[C@H]12	23.4
CC(C)CCC1(CN2CCCC2=O)C(=O)NC(=O)NC1=O	3.9
ClC=C(Cl)Cl	22.1
CCN(CC)C(C)C(=O)c1ccccc1 (stereo unspecified)	20.7
O=C(NCc1cccc(OC(F)F)c1)c1cn(CC2CCCNC2)nn1 (stereo unspecified)	0.9
O=C(Nc1cc(F)ccc1F)c1c(O)c2cccnc2n(Cc2ccccc2)c1=O	163.8
Fc1cnccc1CN1CCC2(CCN2c2ncccn2)C1 (stereo unspecified)	-22.5
C=C(C)CN1CC[C@]23c4c5ccc(O)c4O[C@H]2c2[nH]c4ccccc4c2C[C@@]3(O)C1C5	-66.8&-14.7
CNCC(O)c1ccc(O)cc1 (stereo unspecified)	12.8
Cc1ccc(NC(=O)c2cc3cccnc3n(Cc3ccc(F)cc3)c2=O)cc1	85.0
CCCNC(=O)C1=NOC2(CCNC2)C1 (stereo unspecified)	48.9
CN(C)[C@H]1CN(C(=O)Cc2ccccn2)C[C@H]2CCCO[C@H]21	1.6
COC(=O)c1ccccc1-n1c(C)nc2ccccc2c1=O	1.1
COCCNC(=O)[C@H]1C[C@H]2CCN(Cc3c(C)noc3C)C[C@H]2O1	-38.7
Nc1ccc([As](=O)(O)O)cc1	-9.5&5.8
COc1cc(N2CC[C@@H]3[C@H]2CCN3Cc2cccnc2)ncn1	-5.3
Cc1ccc(NC(=O)c2c(O)c3cccnc3n(Cc3ccccc3)c2=O)cc1F	29.7
COc1cccc([C@@H]2CN(CCCn3ccnc3)[C@@H]3C4CCN(CC4)[C@@H]32)c1	-1.8
C=C[C@H]1CN2CC[C@H]1C[C@@H]2[C@@H](OC(=O)OCC)c1ccnc2ccc(OC)cc12	3.2&1.4
Cc1c[nH]c(CN2C[C@H]3CC=CC[C@H]3C2)c(C)c1=O	1.0
C[C@@H]1CN([C@H](C)CO)C(=O)CCCn2cc(nn2)CO[C@@H]1CN(C)C(=O)Oc1ccc2ccccc2c1	88.8
CC1(C)C2C[C@@H](O)[C@]3(C)C(CC[C@@]4(C)[C@H](c5ccoc5)OC(=O)[C@H]5O[C@]543)[C@@]2(C)[C@@H](O)C[C@H]1O (stereo partly specified)	17.5
Cc1ccc(N2CCO[C@H]3CN(Cc4ccccn4)C[C@@H]32)nn1	-5.8
CCCCn1c(=O)c(C(=O)Nc2ccccc2C(=O)OCC)c(O)c2ccccc21	-63.4
C=CCNc1ccccc1C(=O)N1C[C@@H]2C[C@@H](C1)c1cccc(=O)n1C2	-28.8
CCc1cnc(N2C[C@H]3CN(Cc4nccs4)C[C@H]3C2)nc1	10.7
C[C@H]1OC[C@@H](C[N+](C)(C)C)O1	7.7
O=C([C@H]1CCC[C@]12CCN(Cc1ccccn1)C2)N1CCOCC1	4.0
Cc1ccc(CN2C[C@H]3COC[C@@]3(CNC(=O)c3ccno3)C2)s1	-5.7
O=S(=O)(c1ccc(F)cc1)N1CC2CNCC2C1 (stereo unspecified)	90.1
